Cruzain Triton: cruzain (T. cruzi) inhibition with detergent; P25779; purified cruzain, Z-FR-AMC fluorescence, 0.01% Triton; Potency, µM, for the others: max response, negative = inhibition, most hits filed as inhibitors; actives 0.43% (n = 200,000);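 further: plate controls were neutral wells for no effect and buffer without enzyme for full effect; nearly all actives have a fitted effect of over 40% in size; top concentration of the series not given in the record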
Target sequence (P25779 123-467 limits assumed): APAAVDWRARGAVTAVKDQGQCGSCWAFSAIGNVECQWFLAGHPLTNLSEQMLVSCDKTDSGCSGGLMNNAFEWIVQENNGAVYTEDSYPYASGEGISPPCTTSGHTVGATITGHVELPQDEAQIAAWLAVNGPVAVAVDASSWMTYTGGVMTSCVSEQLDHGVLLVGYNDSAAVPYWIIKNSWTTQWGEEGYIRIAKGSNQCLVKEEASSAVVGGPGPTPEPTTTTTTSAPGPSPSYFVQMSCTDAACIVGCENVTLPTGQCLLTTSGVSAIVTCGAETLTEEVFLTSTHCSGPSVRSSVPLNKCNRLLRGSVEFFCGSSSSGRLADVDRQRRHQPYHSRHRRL
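Detergent-containing arm of a paired screen for aggregation-based inhibition: 0.01% Triton X-100 present. Cruzain at 1.5 nM cleaved 2 uM Z-FR-AMC at pH 5.5 with 5 mM DTT; AMC fluorescence gain over 60 s measured activity.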
StopGo reporter: FMDV 2A StopGo reporter, luciferase signal; human cells with a luciferase reporter of 2A StopGo recoding; control for the full effect not named in the record; Potency, µM (doses to about 57.9 µM), without a hit: at the top dose signal change, negative = less light; actives 1.2% (n = 410,000); AID 1159524; active = well fitted falling curve with a large enough effect; inconclusive = small, poorly fitted or top-dose-only effect; inactive = no such curve, though single readings can be large or run the other way; tested in HEK293T cells; further: on the % scale 0 is the no-effect control and ±100 the full control effect; nearly all actives have a fitted effect of over 45% in size; luciferase light after 4 h
MARV entry inh: Marburg virus entry inhibition; Potency, µM (titrated, usually from 37.8 µM), without a hit: top-dose activity change, negative = inhibition, usual class: inhibitors; Marburg virus pseudotyped entry inhibition, cell reporter; control for the full effect not named in the record; about a third of the inactives were read at about 46 µM; actives 1.8% (n = 300,000); active = well fitted inhibition curve with a large enough effect; inconclusive = small, poorly fitted or top-dose-only effect, or effect the other way; inactive = flat fitted curve, though single readings scatter; tested in HEK293 cells; about a fifth of its hits are not listed in these tables; further: on the % scale 0 is the no-effect control and ±100 the full control effect; luciferase read-out
NS1 inh: influenza NS1 inhibition; S. cerevisiae slowed by influenza A NS1, growth recovery by OD600; Potency, µM (doses to about 46.1 µM), for the others: at the top dose activity, positive = more growth; actives 0.4% (n = 270,000); active means well fitted rising curve with a large enough effect; inconclusive means small, poorly fitted or top-dose-only effect; inactive means no such curve, though single readings can be large or run the other way; further: nearly all actives have a fitted effect of over 50% in size
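Read-out: OD600 growth recovery of NS1-expressing budding yeast. Cells grown overnight at 30C in -URA glucose medium, washed, resuspended and diluted 1:100 in 2% galactose assay medium, pH 6.0. Same strain lacking NS1 served as positive control.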
Cruzain noTriton: blocks cruzain activity in detergent-free assay; P25779; purified cruzain, Z-FR-AMC fluorescence, no detergent; Potency, µM, without a hit: max response, negative = inhibition, actives largely listed as inhibitors; actives 2.3% (n = 200,000); AID 1476;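 further: plate controls were enzyme without inhibitor for no effect and buffer without enzyme for full effect; nearly all actives have a fitted effect of over 40% in size; top concentration of the series not given in the record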
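Detergent-free condition (0.00005% Triton X-100) in acetate buffer pH 5.5 with DTT. 1.5 nM enzyme and compound were pre-mixed 15 min, then 2 uM Z-FR-AMC substrate added; reaction progress from fluorescence change between first and third reads (60 s).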
RE007 growth inh: less growth of the S. pombe RE007 Vpr strain; AID 651644; actives 0.21% (n = 360,000); S. pombe RE007 Vpr strain, BacTiter-Glo ATP luminescence, 24 h; control for the full effect not named in the record; Potency, µM (series often up to 92.2 µM), for inactives: at the highest dose activity change, negative = less growth; active = well fitted falling curve with a large enough effect; inconclusive = small, poorly fitted or top-dose-only effect; inactive = no such curve, though single readings can be large or run the other way;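 further: on the % scale 0 is the no-effect control and ±100 the full control effect; nearly all actives have a fitted effect of over 50% in size; the assay follows cell death caused by Vpr and the record does not say whether a fall means rescue or toxicity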
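Fission yeast strain RE007, carrying one chromosomally integrated HIV-1 vpr copy, was seeded at OD 0.01 in PMG+AL medium with 23 nL pinned compound. After 24 h at 30 °C and 99% humidity, viability was read by BacTiter-Glo luminescence.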
SARS PLP yeast: blocks SARS-CoV papain-like protease in a yeast assay; S. cerevisiae expressing SARS-CoV PLpro, growth rescue; control for the full effect not named in the record; Potency, µM (titrated, usually from 32.9 µM), inactives show at the highest dose activity, positive = growth rescue; actives 0.19% (n = 330,000); AID 485353; active means well fitted rising curve with a large enough effect; inconclusive means small, poorly fitted or top-dose-only effect; inactive means no such curve, though single readings can be large or run the other way; further: 0% is about no effect; nearly all actives have a fitted effect of over 55% in size; growth read by luminescence after 48 h
LASV entry inh: Lassa virus entry inhibition; Lassa virus pseudotype entry inhibition, cell reporter; control for the full effect not named in the record; actives 1.2% (n = 300,000); Potency, µM (series often up to 37.9 µM), for the others: top-dose activity change, negative = inhibition, actives largely listed as inhibitors; AID 540256; active means well fitted inhibition curve with a large enough effect; inconclusive means small, poorly fitted or top-dose-only effect, or effect the other way; inactive means flat fitted curve, though single readings scatter; tested in HEK293 cells; further: on the % scale 0 is the no-effect control and ±100 the full control effect; nearly all actives have a fitted effect of over 50% in size; luciferase read-out
* = called active by the depositor; ? = inconclusive; / = no result given; & = joins results of further samples; [ ] = remark or other dose. Unless noted, the call rests on the fitted dose curve; in most records, active means well fitted curve in the direction sought with a large enough effect; inconclusive means small, poorly fitted or top-dose-only effect, or another doubt; inactive means no such curve, though single readings can be large; an effect the other way counts as inactive or inconclusive. Potency means the concentration at half of the fitted maximal effect.

Molecule | Cruzain Triton | StopGo reporter | MARV entry inh | NS1 inh | Cruzain noTriton | RE007 growth inh | SARS PLP yeast | LASV entry inh
CC(=O)c1c(C)[nH]c(C(=O)N2CCc3ccccc3C2)c1C | 1.8% | 53%[activator] | ? | -45% | 6% | -8% | 3% | -4%
Cc1cc(NC(=O)c2cccc(S(=O)(=O)N3CCCCCC3)c2)no1 | 0.7% | -12% | -21% | -7% | 6% | 11% | ? | -21%
Cc1cc(C)cc(-n2cnc3cc(C(=O)NC4CCCCCC4)ccc32)c1 | -1.1% | 15% | / | / | 6% | / | / | -24%[46.1 µM]
Cc1nc2c3ccccc3nc(NNC(=O)CCC(=O)N3CCN(c4cccc(Cl)c4)CC3)n2n1 | 1.0% | ? | 2%[46.1 µM] | / | ? | / | / | 7%[46.1 µM]
CCOc1cccc(OCCCn2c(-c3ccc(Br)cc3)nc3ccccc3c2=O)c1 | -2.0% | -6% | 6%[46.1 µM] | / | -9% | / | / | -1%[46.1 µM]
CCN(CC)S(=O)(=O)c1ccc2c(c1)c(=O)c(C(=O)N1CCc3ccccc3C1)cn2C | -1.5% | 23% | -1%&-1% | -4% | ? | 4% | 10% | 5%
COc1ccc(C2=C(C)C(=O)N(Cc3ccc(C(=O)NC(C)c4ccccc4)cc3)S2(=O)=O)cc1 (stereo unspecified) | -10% | -23% | / | / | 16µM* | / | / | -1%[46.1 µM]
CCOC(=O)c1oc2ccccc2c1COC(=O)CNC(=O)c1cccc(C)c1 | / | ? | 17% | -1% | / | -2% | ? | ?
O=C(NCc1ccccc1)C(Cc1ccccc1)NS(=O)(=O)c1cccc2nsnc12 (stereo unspecified) | 0.6% | / | -10% | -2% | -2% | -8% | 7% | -3%
COc1ccc(C2CC(c3ccc([N+](=O)[O-])cc3)=NN2C(C)=O)cc1 (stereo unspecified) | / | -4% | ? | -1% | / | 4% | -9% | -18%[46.1 µM]
COc1cc(/C=N/NS(=O)(=O)c2ccccc2)ccc1OS(=O)(=O)c1ccc(C)cc1 | -4.8% | 7% | ? | 12% | 7% | -6% | 11% | 6%
COc1ccc(C(=O)Nc2ccc(C)c(S(=O)(=O)N3CCOCC3)c2)cc1S(=O)(=O)N1CCCC1 | / | ? | -27% | / | / | 15% | / | -5%
CCOc1cc(N2CCOCC2)c(OCC)cc1NC(=O)CSc1nnc(N)s1 | / | 2% | -21%[46.1 µM] | / | / | -9% | 2% | -15%[46.1 µM]
C=CCSc1nnc(NC(=O)C23CC4CC(CC(NC(C)=O)(C4)C2)C3)s1 | / | 19% | / | -7% | / | -6% | 3% | /
CC(=O)NC1(NC(C)=O)CCN(C)C(c2ccccc2)C1C (stereo unspecified) | -0.9% | -13% | 20% | 0% | -1% | 1% | 7% | 2%
CCNC(=S)Nc1ccc(Cl)c([N+](=O)[O-])c1 | / | 0% | -6%[46.1 µM] | / | / | 13% | -1% | ?
CC(=O)c1c(C)[nH]c(C(=O)OCC(=O)NCCc2ccc(F)cc2)c1C | 1.3% | 0% | -21% | -4% | 13% | 8% | -1% | 6%
CCCc1[nH]nc2c1C(Cc1ccccc1)C(C#N)=C(N)O2 (stereo unspecified) | -1.0% | -7% | 14% | -5% | 8% | -7% | -5% | -4%
CCOC(=O)C1=C(Nc2cccc(Cl)c2)OCC1=O | -0.6% | -11% | ? | -50% | 13% | 1% | -11% | 13%
COC(=O)CNC(=O)Cc1c(C)n(C(=O)c2ccc(Cl)cc2)c2ccc(OC)cc12 | / | -14% | -22%[46.1 µM] | -24% | / | 14% | -5% | -21%[46.1 µM]
Cn1cccc1C(C#N)(CC#N)c1cccc(F)c1C#N (stereo unspecified) | / | -18% | 13% | / | / | 3% | 0% | 2%
COc1ccccc1C(=O)Oc1ccc(C(C)C)cc1 | -13% | 65%[activator] | 11% | -7% | -10% | 7% | -16% | 10%
CN(Cc1cccc([N+](=O)[O-])c1)Cc1cccc2ccccc12 | / | -20% | -10%[46.1 µM] | -2% | / | -16% | / | -10%[46.1 µM]
Cc1ccc(OC(=O)c2sc(Cl)nc2C)cc1C | -1.9% | -23% | -10% | -13% | -19% | -10% | -23% | 15%
COc1cccc(C(=O)CSc2nnc(-c3cccs3)o2)c1 | -3.9% | / | 0% | 3% | -10% | -25% | -7% | 9%
COc1ccc(-c2csc(NC(=O)c3ccc(C(C)(C)C)cc3)c2C(=O)O)cc1 | / | 14% | ? | / | / | -19% | / | /
CN1/C(=C\C(=O)c2oc3ccccc3c2N)C(C)(C)c2ccccc21 | -0.7% | ? | ? | 7% | -8% | -8% | 0% | ?
Cc1coc2cc3oc(=O)c(CCC(=O)NCc4ccccn4)c(C)c3cc12 | / | 0% | / | -21% | / | -12% | -2% | /
O=C(Cc1ccccc1)N1CCN(S(=O)(=O)c2ccc([N+](=O)[O-])cc2)CC1 | / | -24% | -7%[46.1 µM] | -8% | / | -1% | -1% | 0%[46.1 µM]
C=CCOc1nc(N2CCCC2)nc(N2CCCC2)n1 | 3.0% | -22% | -4% | -21% | 7% | 0% | -1% | -1%
CCn1cc(CCCC(=O)NCc2cccc(OC)c2)c2ccccc21 | / | ? | / | -9% | / | 0% | -4% | /
O=C(NC1CCN(c2ncccn2)CC1)c1c(F)cccc1F | / | 12% | ? | -4% | / | 3% | 1% | 14%
Cc1ccc(NC(=O)CSc2nnc(C)c(=O)[nH]2)cc1 | -0.1% | -3% | -5%[46.1 µM] | / | -12% | / | / | 26%[46.1 µM]
COc1ccc(CC2(CO)CCN(Cc3cnn(-c4ccccc4OC)c3)CC2)cc1 | / | ? | / | -3% | / | 9% | -2% | /
O=C(NCc1ccccc1Cl)c1ccc(CSCc2cccc(F)c2)o1 | -7.8% | 0% | / | / | 8% | / | / | ?
COc1ccc(CNCCc2ccccc2F)c(OC)c1C | / | -14% | / | 11% | / | -6% | 1% | /
COc1ccc(CCNC(=O)NC2CCCCC2)cc1OC | 6.4% | 23% | ? | 1% | 16% | 14% | 4% | -30%
CC1(C)CC(=O)C2=C(C1)OC(N)=C(C#N)C2CCc1ccccc1 (stereo unspecified) | -6.7% | -10% | -5% | -8% | -15% | -6% | 20% | 0%
CCOc1ncccc1C(=O)Nc1ccc(F)cc1 | / | 4% | 2%[46.1 µM] | -6% | / | 2% | -1% | 5%
Cc1c(OCC(=O)NC(Cc2ccc(Cl)cc2)C(=O)O)ccc2c1oc(=O)c1ccccc12 (stereo unspecified) | / | -12% | / | 1% | / | 2% | -3% | /
CC(C)[C@H](NC(=O)N1CC(=O)Nc2ccccc21)C(=O)N[C@@H](Cc1c[nH]c2ccccc12)C(=O)O | / | -3% | / | 6% | / | 9% | -3% | /
CCCn1c2c(c(O)c(C(=O)Nc3ccccn3)c1=O)CCCC2 | 0.6% | / | 0% | 1% | 9% | / | -1% | /
Cc1ccccc1-n1c(C)nnc1SCC(=O)NNC(=O)c1ccccc1 | 3.8% | -16% | ? | 2% | -2% | 7% | 5% | 12%
CCn1c(SCC(=O)O)nnc1-c1ccccc1 | 4.7% | -17% | -11% | -15% | -13% | 14% | ? | -34%
Cc1cccn2cc(CCNS(=O)(=O)c3cccc([N+](=O)[O-])c3)nc12 | / | -11% | 4%[46.1 µM] | 1% | / | -28% | -3% | -15%
COc1ccc(C2=NN(C(C)=O)C(c3cccs3)C2)cc1OC (stereo unspecified) | / | 20% | 22%[46.1 µM] | -16% | / | -7% | 2% | 22%[46.1 µM]
CCN(CC)S(=O)(=O)c1ccc(O)c(C(=O)OCC(=O)Nc2ccc(OC(F)(F)F)cc2)c1 | / | -25% | ? | 3% | / | 12% | -1% | ?
COC(/C=C/Nc1ccc(Br)cc1)=C(C#N)C#N | -1.4% | / | ? | 8% | 0% | -6% | 6% | 4%

By substructure, the entries above containing a COOH group (4)
Molecule | Cruzain Triton | StopGo reporter | MARV entry inh | NS1 inh | Cruzain noTriton | RE007 growth inh | SARS PLP yeast | LASV entry inh
COc1ccc(-c2csc(NC(=O)c3ccc(C(C)(C)C)cc3)c2C(=O)O)cc1 | / | 14% | ? | / | / | -19% | / | /
Cc1c(OCC(=O)NC(Cc2ccc(Cl)cc2)C(=O)O)ccc2c1oc(=O)c1ccccc12 (stereo unspecified) | / | -12% | / | 1% | / | 2% | -3% | /
CC(C)[C@H](NC(=O)N1CC(=O)Nc2ccccc21)C(=O)N[C@@H](Cc1c[nH]c2ccccc12)C(=O)O | / | -3% | / | 6% | / | 9% | -3% | /
CCn1c(SCC(=O)O)nnc1-c1ccccc1 | 4.7% | -17% | -11% | -15% | -13% | 14% | ? | -34%

The list goes on.
Molecule | Cruzain Triton | StopGo reporter | MARV entry inh | NS1 inh | Cruzain noTriton | RE007 growth inh | SARS PLP yeast | LASV entry inh
O=C1C(Cl)=C(NCc2ccco2)C(=O)c2ccccc21 | / | -18% | ? | / | / | 20µM* | / | -10%[46.1 µM]
COc1ccc(S(=O)(=O)N2CCN(C(=O)[C@H](Cc3ccccc3)NC(=O)c3ccco3)CC2)cc1 | / | ? | 20% | / | / | 10% | -12% | 4%
Cn1c(O)c(N=NC(=O)Cc2c[nH]c3ccccc23)c2ccccc21 | / | -13% | 1% | / | / | 1% | / | -18%
COC(=O)C1CN(Cc2ccccc2)C(=O)C1=O (stereo unspecified) | / | -5% | -16%[46.1 µM] | / | / | -8% | / | 5%[46.1 µM]
O=C(O)c1ccccc1C(=O)NCc1ccccc1 | 6.5% | -12% | 22% | 4% | -9% | -5% | 3% | 6%
COc1ccc(N2C(=O)CC(N(CCc3ccccc3)C(=O)/C=C/C(=O)O)C2=O)cc1 (stereo unspecified) | / | 1% | 3%[46.1 µM] | 2% | / | -13% | -5% | 20%[46.1 µM]
CC(=O)N(Cc1cc(=O)[nH]c2ccccc12)c1ccc(C)cc1 | 0.4% | -21% | -9% | 6% | -3% | 7% | -4% | -15%
O=C(CNC(=O)c1ccco1)NCC(=O)OCc1ccc(Cl)cc1Cl | / | 9% | -21%[46.1 µM] | 9% | / | 1% | -13% | 9%
Cc1ccc2[nH]c(O)c(N=Nc3nc4ccccc4s3)c2c1 | / | 0% | 10%[46.1 µM] | 2% | / | 22% | -7% | /
